# FGF22 binding: FGF22 (human) thermal shift binding | Q9HCT0 | recombinant FGF22 thermal shift, SYPRO orange fluorescence; percent of sucrose octasulfate shift, DMSO zero | calls only at 9.99 µM | hit rate 1.5% among 340,000;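 active means melting point raised past a set limit in the mean and every replicate; three in four hits are not shown here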
# Target sequence (Q9HCT0 whole entry, looked up): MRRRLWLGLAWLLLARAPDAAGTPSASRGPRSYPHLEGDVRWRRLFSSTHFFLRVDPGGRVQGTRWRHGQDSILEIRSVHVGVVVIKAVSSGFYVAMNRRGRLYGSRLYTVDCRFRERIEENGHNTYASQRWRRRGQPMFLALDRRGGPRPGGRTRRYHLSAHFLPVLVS
# MLL AF4-AF9 inh: blocks AF4 peptide binding to human AF9; P42568; AlphaScreen, biotin-AF4 peptide binding to FLAG-AF9; inhibition, % at 10 µM; hit rate 0.47% among 350,000;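 active means every replicate reaching a set inhibition limit, whatever the replicate mean, cut at about 25% in these data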;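 further: 0% = plate neutral control median and 100% = total signal loss; the record names both 10 and 1 µM as test concentration; the first replicate is given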
# Target sequence (P42568 whole entry, looked up): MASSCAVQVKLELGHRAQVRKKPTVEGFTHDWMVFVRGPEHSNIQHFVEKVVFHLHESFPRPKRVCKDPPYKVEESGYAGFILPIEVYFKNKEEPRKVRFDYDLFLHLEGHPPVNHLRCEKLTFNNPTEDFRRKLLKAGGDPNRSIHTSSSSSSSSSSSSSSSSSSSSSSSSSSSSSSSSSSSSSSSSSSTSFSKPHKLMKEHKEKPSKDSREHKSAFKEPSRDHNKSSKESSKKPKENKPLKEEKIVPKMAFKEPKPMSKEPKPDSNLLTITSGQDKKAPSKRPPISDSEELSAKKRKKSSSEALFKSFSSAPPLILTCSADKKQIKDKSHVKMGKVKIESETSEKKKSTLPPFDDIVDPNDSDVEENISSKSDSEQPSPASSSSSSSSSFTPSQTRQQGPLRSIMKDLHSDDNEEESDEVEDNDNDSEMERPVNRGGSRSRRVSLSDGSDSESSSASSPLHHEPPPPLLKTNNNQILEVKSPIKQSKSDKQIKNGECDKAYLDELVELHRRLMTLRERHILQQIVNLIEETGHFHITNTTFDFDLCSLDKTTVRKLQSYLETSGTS
# Ecoli rRNA inh: inhibitors of bacterial rRNA selective over humanized ribosomes; E. coli WT GFP vs humanized-ribosome RFP mutants, fluorescence, 24 h; stronger effect = lower value; DMSO median 0, no signal -100; hit rate 1.6% among 350,000; GFP signal change (wild-type ribosome), % (concentration not given with the values);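 active means significant combined selectivity score with lowered wild-type GFP, culture density cut under 30%, mutant RFP and density less affected; inactive means any of these conditions unmet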; further: one replicate is shown; some compounds called inactive have numbers as strong as hits
# Ecoli rRNA inh OD600: recorded beside Ecoli rRNA inh, whose call it bears; OD600 change, %; measured here: OD600 growth;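 optical density of the mix in the first replicate; 0 = DMSO median and -100 = no signal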
# Ecoli rRNA inh RFP: also measured in Ecoli rRNA inh; calls as there; RFP signal change, %; measured here: RFP humanized mutant strains;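 first replicate; 0 = DMSO median and -100 = no signal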
# * marks the source's active call; other numbers are inactive results; i = inactive; + = active, no number; & = joins results of further samples. These rows are one share of the data; the hit share may differ from the screen's.
SMILES,FGF22 binding,MLL AF4-AF9 inh,Ecoli rRNA inh,Ecoli rRNA inh OD600,Ecoli rRNA inh RFP
CN(C)CCCNC(=O)C[C@H]1CC[C@H](NS(=O)(=O)c2ccc(F)cc2)[C@H](CO)O1,i,-1.2,2,1,-2.2
C[C@@H]1CN([C@@H](C)CO)C(=O)c2cccc(NC(=O)Nc3ccccc3)c2O[C@H]1CN(C)Cc1ccc2c(c1)OCO2,i,-7.4,-1,-16,-0.1
C[C@@H]1CCCCO[C@H](CN(C)C(=O)Nc2ccccc2)[C@H](C)CN([C@@H](C)CO)C(=O)c2cc(NC(=O)c3ccccc3)ccc2O1,i,-2.0,-3,-1,-2.3
CC1(C(=O)Nc2cccc3ccccc23)CCN1C(=O)C1(c2ccccc2)CCCC1 (configuration not stated),i,0.2,9,19,1.4
Cc1ccc(S(=O)(=O)N2C[C@@H](O)COC[C@@H]3O[C@@H](CC(=O)NCc4ccc(Cl)c(Cl)c4)CC[C@H]32)cc1,+,5.1,-38,-62,-11
CCCNC(=O)Nc1ccc2c(c1)C(=O)N(C)C[C@@H](OC)[C@H](C)CN(C(=O)C1CCOCC1)[C@@H](C)CO2,i,-1.9,2,6,-1.3
CCCC#Cc1cnc2c(c1)C(=O)N([C@@H](C)CO)C[C@@H](C)[C@H](CN(C)C(=O)c1cnccn1)O2,i,-3.2,7,9,0.8
O=C(c1ccccc1)N1CC2(C1)[C@H](c1ccccc1)[C@H](CO)N2Cc1ccccn1,i,-0.2,-3,-6,-0.9
CN(C)C(=O)C[C@H]1CC[C@H]2[C@H](COc3ccc(NC(=O)C4CC4)cc3C(=O)N2C)O1,i,0.1,1,5,-2.8
CN(C)c1ccc(C=C2SC(=S)NC2=O)cc1,i,-1.5,6,5,32
Cc1ccc(S(=O)(=O)N(C)C[C@H]2OCCCC[C@@H](C)Oc3ccc(NC(=O)Cc4ccccc4)cc3C(=O)N([C@H](C)CO)C[C@@H]2C)cc1,i,0.2&-5.0,0&0,3&12,0.8&0.2
CNC[C@@H]1Oc2cc(C#CCC(C)C)ccc2S(=O)(=O)N([C@@H](C)CO)C[C@H]1C,i,11,-4,-6,4.0
C[C@H](CO)N1C[C@H](C)[C@@H](CN(C)C(=O)Nc2ccccc2)Oc2ccc(NC(=O)C3CC3)cc2CC1=O,i,-1.4,3,5,-1.7
CCOC(=O)N(C)c1c(CC)nc2c(OCc3ccc(C(F)(F)F)cc3)cccn12,i,1.7,-7,-21,-3.3
C[C@@H]1CN([C@H](C)CO)S(=O)(=O)c2ccc(Br)cc2O[C@H]1CN(C)Cc1cccnc1,i,2.7,-15,-37,-10
Cc1cc(/C=C(\C#N)C(=O)NCc2ccccc2)c(C)[nH]1,i,0.4,6,-1,3.0
COc1ccc(NC(=O)N(C)C[C@@H]2Oc3ccc(NC(=O)CCCN(C)C)cc3CC(=O)N([C@H](C)CO)C[C@H]2C)cc1,i,3.0,7,2,0.2
COc1ccc(C(=O)Nc2ccc3c(c2)OC[C@@H](C)N(C(C)=O)C[C@@H](C)[C@H](OC)CN(C)C3=O)cc1,i,-0.8,-1,-1,-0.9
C[C@H]1CN([C@@H](C)CO)C(=O)CCCn2nncc2CO[C@@H]1CN(C)S(=O)(=O)c1ccc(-n2cccn2)cc1,i,-2.5&-1.5,-1&2,4&1,-1.3&1.8
COc1ccc(CCN2CC(C(=O)OCC(=O)NCc3ccccc3Cl)CC2=O)cc1OC (configuration not stated),i,0.5,4,9,0.3
CC(C)c1cn(CC[C@@H]2CC[C@@H](NC(=O)C3CCCCC3)[C@@H](CO)O2)nn1,i,-2.3,2,6,2.3
O=C(CCN1CCC2CCC(C2)C1)c1ccc(F)cc1 (configuration not stated),i,-6.1,4,5,-1.7
O=C(CSc1ccc2nnc(-c3cccs3)n2n1)N1CCOCC1,i,6.4,-1,0,-1.4
Cc1noc(C)c1NC(=O)N(C)C[C@@H]1Oc2ccc(NC(=O)C3CCCCC3)cc2C(=O)N([C@H](C)CO)C[C@@H]1C,i,-3.9,4,8,-3.7
CO[C@@H]1CN(C)C(=O)c2ccc(NS(C)(=O)=O)cc2OC[C@H](C)N(Cc2ccccn2)C[C@H]1C,i,-3.3,-1,3,-1.1

# Next records.
SMILES,FGF22 binding,MLL AF4-AF9 inh,Ecoli rRNA inh,Ecoli rRNA inh OD600,Ecoli rRNA inh RFP
C[C@H](CO)N1C[C@H](C)[C@@H](CN(C)Cc2ccc3c(c2)OCO3)Oc2ccc(NC(=O)c3ccncc3)cc2CC1=O,i,1.8,-3,-8,2.1
O=C(CCc1ccccc1Cl)Nc1cc(S(=O)(=O)N2CCOCC2)ccc1N1CCCC1,i,11,-14,-13,-3.2
C[C@@H]1CN([C@H](C)CO)C(=O)c2cc(NC(=O)Nc3ccccc3)ccc2O[C@@H](C)CCCCO[C@H]1CN(C)Cc1ccncc1,i,5.5,-4,-16,1.4
COc1ccc(NC(=O)N(C)C[C@H]2Oc3ccc(NS(C)(=O)=O)cc3CC(=O)N([C@@H](C)CO)C[C@H]2C)cc1,i,-3.9,2,1,-1.9
CCS(=O)(=O)N1C[C@@H](C)[C@H](OC)CN(C)C(=O)c2cc(NS(=O)(=O)c3ccccc3C)ccc2OC[C@H]1C,i,-0.8,-1,3,-3.5
COc1ccccc1NC(=O)N1C[C@@H]2[C@H](c3ccccc31)[C@@H](CO)N2CC1CCOCC1,i,0.3,4,11,-0.2
COc1cccc(CNC[C@H]2O[C@@H](n3cnc(C(N)=O)n3)[C@H](O)[C@@H]2O)c1OCc1ccc(F)cc1Cl,i,1.6,8,10,-0.1
C#CCOCCOCCOCCNc1nc(N2CCOCC2)nc(N2CCN(C(=O)[C@H](CCCCN)n3cc(CCCC)nn3)CC2)n1,i,9.1,0,1,6.8
COCC#Cc1ccc([C@H]2[C@H]3CN(S(=O)(=O)c4cccc(OC)c4)CCCCN3[C@H]2CO)cc1,i,-4.4,-3,-36,-1.4
Cc1noc(C)c1NC(=O)N[C@@H]1C=C[C@H](CC(=O)N2CCN(C)CC2)O[C@@H]1CO,i,-2.4,3,10,-3.7
C[C@@H]1CN([C@@H](C)CO)C(=O)c2cccc(NC(=O)CCCCCC(=O)Nc3ccccc3N)c2O[C@H]1CN(C)S(=O)(=O)c1ccc(Cl)cc1,i,-6.3,-2,-12,0.7
C[C@@H]1CCCCO[C@@H](CN(C)C(=O)NC2CCCCC2)[C@H](C)CN([C@@H](C)CO)C(=O)c2cc(NC(=O)Nc3cccc4ccccc34)ccc2O1,i,-3.6,2,4,-4.8
CCc1cc(C(=O)OCC(=O)NCCc2ccccc2)sc1C,i,-7.6,-5,-6,1.6
C[C@H]1CN([C@@H](C)CO)C(=O)c2cc(-c3ccc(C#N)cc3)cnc2O[C@H]1CN(C)C(=O)Nc1ccc(C(F)(F)F)cc1,i,1.5,-7,-34,8.0
C[C@@H]1CCCCO[C@H](CN(C)Cc2ccncc2)[C@H](C)CN([C@H](C)CO)C(=O)c2cc(NS(=O)(=O)c3cn(C)cn3)ccc2O1,i,-4.3,3,-5,4.1
CN(C)C(=O)c1cccc(-c2ccc([C@H]3[C@@H](CO)N(C(=O)C4CCC4)[C@H]3C#N)cc2)c1,i,-0.5,1,3,-1.2
CO[C@@H]1CN(C)C(=O)c2cc(NC(=O)Nc3ccccc3)ccc2OC[C@@H](C)N(C(=O)CN(C)C)C[C@@H]1C,i,4.5,1,1,-1.1
CC(C)C(=O)N1CCN(c2ccc(NC(=O)c3ccc([N+](=O)[O-])o3)cc2Cl)CC1,i,4.6,-38,-46,-11
COc1ccc(NC(=O)N(C)C[C@@H]2Oc3c(NS(=O)(=O)c4cn(C)cn4)cccc3C(=O)N([C@@H](C)CO)C[C@@H]2C)cc1,i,-4.6,1,11,1.5
CCC(=O)N[C@H]1C=C[C@@H](CC(=O)NCc2ccccc2OC)O[C@H]1CO,i,-2.7,0,0,-0.9
C[C@H](CO)N1C[C@H](C)[C@H](CN(C)C(=O)Nc2ccc3c(c2)OCO3)Oc2cc(C#Cc3ccccc3)ccc2S1(=O)=O,i,1.9,-1,-1,-2.3
C[C@@H]1CN([C@@H](C)CO)C(=O)c2cc(NC(=O)C3CC3)ccc2O[C@H]1CN(C)C(=O)NC1CCCCC1,i,-4.1,5,8,2.4
Cc1noc(C)c1NC(=O)Nc1ccc2c(c1)CC(=O)N([C@H](C)CO)C[C@@H](C)[C@H](CN(C)S(=O)(=O)c1cccs1)O2,i,0.5,3,10,-4.7
COc1ccccc1S(=O)(=O)Nc1ccc2c(c1)OC[C@H](C)NC[C@@H](C)[C@H](OC)CN(C)C2=O,i,-2.3,3,2,-0.7
C[C@@H]1CN([C@H](C)CO)C(=O)c2cccc(NC(=O)Nc3cccc4ccccc34)c2O[C@H]1CN(C)C(=O)Nc1ccc2c(c1)OCO2,i,7.7,3,4,1.9

# Sorted by the number under Ecoli rRNA inh OD600 (lowest first): 5 of the compounds above
SMILES,FGF22 binding,MLL AF4-AF9 inh,Ecoli rRNA inh,Ecoli rRNA inh OD600,Ecoli rRNA inh RFP
O=C(CCc1ccccc1Cl)Nc1cc(S(=O)(=O)N2CCOCC2)ccc1N1CCCC1,i,11,-14,-13,-3.2
CN(C)CCCNC(=O)C[C@H]1CC[C@H](NS(=O)(=O)c2ccc(F)cc2)[C@H](CO)O1,i,-1.2,2,1,-2.2
CN(C)C(=O)c1cccc(-c2ccc([C@H]3[C@@H](CO)N(C(=O)C4CCC4)[C@H]3C#N)cc2)c1,i,-0.5,1,3,-1.2
CC(C)c1cn(CC[C@@H]2CC[C@@H](NC(=O)C3CCCCC3)[C@@H](CO)O2)nn1,i,-2.3,2,6,2.3
COc1ccccc1NC(=O)N1C[C@@H]2[C@H](c3ccccc31)[C@@H](CO)N2CC1CCOCC1,i,0.3,4,11,-0.2

# Next structures:
SMILES,FGF22 binding,MLL AF4-AF9 inh,Ecoli rRNA inh,Ecoli rRNA inh OD600,Ecoli rRNA inh RFP
CN1C(=O)c2cc(NC(=O)c3cccs3)ccc2OC[C@H]2O[C@H](CC(=O)N3CCOCC3)CC[C@@H]21,i,-0.6,3,8,-0.6
COc1ccc2c3c([nH]c2c1)[C@@H](CO)N(S(=O)(=O)c1cn(C)cn1)CC31CCN(Cc2ccccc2F)CC1,i,6.3,-4,9,-3.4
O=C(C[C@@H]1C=C[C@@H](NC(=O)Nc2ccccc2)[C@H](CO)O1)NCc1cccc(F)c1,i,-9.3,0,3,-0.6
CCCC(=O)Nc1ccc2c(c1)C(=O)N(C)C[C@H](OC)[C@H](C)CN(Cc1cccc(F)c1)[C@@H](C)CO2,i,2.1,-6,-9,2.2
COCCNC(=O)C1CCCN(C(=O)c2ccnc(Cl)c2)CC1 (configuration not stated),i,-3.6,8,5,0.7
CCC(=O)N1[C@H](CO)[C@@H](c2ccccc2)[C@@H]1CN(CC)C(=O)c1cccc(F)c1,i,-5.2,0,-9,0.2
C[C@@H]1CCCCO[C@H](CN(C)S(=O)(=O)c2cccs2)[C@H](C)CN([C@@H](C)CO)C(=O)c2cc(NS(=O)(=O)c3ccc(Cl)cc3)ccc2O1,i,-1.2,-1,7,-0.9
Cc1ccc2c(c1)S(=O)(=O)c1ccc3ccccc3c1N2,i,-1.6,-3,28,4.7
O=C(c1cccc(F)c1)N1CC2(C1)[C@@H](c1ccccc1)[C@@H](CO)N2C(=O)C1CC1,i,-4.3,-5,-3,0.2
CC(C)OC(=O)N(C)C[C@@H]1OCc2ccccc2-c2c(n(C)c3ccccc23)C(=O)N([C@H](C)CO)C[C@@H]1C,i,-2.0,-3,-2,-1.7
CCc1ccc(C(O)c2ncc(-c3cccc4ccccc34)[nH]2)cc1 (configuration not stated),i,5.7,-29,-42,0.8
O=C(c1ccc2c(c1)OCO2)N1CCCCN2[C@@H](CO)[C@H](c3ccc(-c4ccccc4)cc3)[C@@H]2C1,i,3.7,-4,-31,2.4
CO[C@H]1CN(C)C(=O)c2cccc(C#N)c2OC[C@@H]2O[C@@H](CC[C@H]2OC)CCN(C)C(=O)[C@H]1C,i,-2.4,0,5,-4.1
Cc1ccc(S(=O)(=O)Nc2ccc3c(c2)C(=O)N([C@H](C)CO)C[C@H](C)[C@@H](CN(C)S(C)(=O)=O)OCCCC[C@H](C)O3)cc1,i,0.3,-2,-2,-2.1
C[C@@H]1CCCCO[C@H](CN(C)S(=O)(=O)c2ccc(F)cc2)[C@H](C)CN([C@@H](C)CO)C(=O)c2cc(NC(=O)CCCN(C)C)ccc2O1,i,5.0,1,-4,1.1
COc1ccc(S(=O)(=O)Nc2ccc3c(c2)C(=O)N([C@@H](C)CO)C[C@@H](C)[C@@H](CN(C)S(=O)(=O)c2ccccc2)O3)cc1,i,1.7,3,0,0.8
O=C(C[C@H]1CC[C@@H](NS(=O)(=O)c2ccc(F)cc2)[C@@H](CO)O1)NCc1ccc(Cl)c(Cl)c1,i,0.2,-14,-18,10.0
C[C@H]1CCCCO[C@H](CN(C)S(=O)(=O)c2ccc(F)cc2)[C@@H](C)CN([C@@H](C)CO)C(=O)c2cc(N(C)C)ccc2O1,i,0.1,-6,0,1.1

# Screens from PubChem BioAssay.
